Screening data (PubChem BioAssay)
RanGTP-Impb inh = inhibitors of RanGTP-importin-beta interaction, primary screen, biochemical, FRET, CFP-Ran, YFP-importin-beta, homogeneous. AID 2216, 2009. Ran GTPase (GTP-bound) - importin-beta complex. 300,000 compounds, 1.1% hits. cell-free CFP-Ran/YFP-importin-beta FRET ratio. inhibition, % (no concentration beside the values);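 active = most replicates above 15%; inconclusive = exactly half above 15%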;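 also: 0% = DMSO wells and 100% = Ran loaded with GDP instead of GTP; wells of about 40 µL received 100 nL stock; the first replicate is given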
Vif A3G = inhibitors of Vif binding to APOBEC3G peptide, primary screen, biochemical, TR-FRET, GST-Vif 1-94, biotin-A3G peptide, dose response retest (AID 1117319); Virion infectivity factor (Human immunodeficiency virus type 1 group M subtype B (isolate …; TR-FRET GST-Vif / biotin-A3G peptide binding; higher % means a stronger effect; test concentration not given here; strong numbers were not always called active; inhibition, %, or IC50 in µM where a hit was titrated; 260,000 compounds, 0.57% hits;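 active = above the screen mean plus three standard deviations and confirmed in dose response; inconclusive = results disagree or hit not tested in dose response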;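 also: Vif residues 1-94 fused to GST binding biotinylated APOBEC3G peptide 110-148; 0% = full assay without inhibitor and 100% = GST in place of GST-Vif; retest series ran down from 100 µM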
Calb FLC = C. albicans growth inhibition with fluconazole, primary screen, CaCi-2 strain, Alamar Blue fluorescence; AID 1979, 2009; C. albicans CaCi-2 (fluconazole-resistant clinical isolate) + fluconazole, 48 h; 300,000 compounds, 0.57% hits; growth inhibition, % (concentration not given with the values);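 active = most replicates above 75%; inconclusive = exactly half above 75%; inactive = most below 75%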;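 also: all wells also contain fluconazole at 8 µg/ml as a sub-toxic cotreatment; 0% = median of DMSO wells and 100% = median of geldanamycin control wells; wells of about 8 µL received 7.5 nL stock; the first replicate is given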
Beta2AR agonist = beta2AR agonists driving receptor internalization, primary screen, cell-based, FAP fluorogen, flow cytometry. 340,000 compounds, 0.43% hits. response, % (test concentration not listed). AID 504454, 2011. Beta-2 adrenergic receptor (Homo sapiens), P07550. Am2.2-beta2AR cells; reference of the scale not given here;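 active = response above a set limit, near 3 SD of response in nonfluorescent compounds, cut at about 42% in these data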;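 also: stock transfer was 100 nL into about 11 µL; a reference agonist was the positive control; negative values mostly stem from fluorescent compounds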
Target sequence (P07550 whole entry, looked up): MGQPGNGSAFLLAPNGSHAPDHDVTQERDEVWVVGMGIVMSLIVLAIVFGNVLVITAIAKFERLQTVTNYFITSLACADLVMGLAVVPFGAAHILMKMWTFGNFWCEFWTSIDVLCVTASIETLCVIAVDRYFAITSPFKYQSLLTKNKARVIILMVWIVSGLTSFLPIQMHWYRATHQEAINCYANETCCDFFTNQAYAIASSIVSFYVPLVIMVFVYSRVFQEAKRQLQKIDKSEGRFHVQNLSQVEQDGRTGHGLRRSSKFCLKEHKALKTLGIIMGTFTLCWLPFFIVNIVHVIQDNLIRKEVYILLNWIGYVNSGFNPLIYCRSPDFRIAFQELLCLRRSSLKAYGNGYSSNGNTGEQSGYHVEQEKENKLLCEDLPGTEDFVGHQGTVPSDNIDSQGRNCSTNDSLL
HNF4A DNA FP = change in binding of human HNF4A to DNA, primary screen, biochemical, fluorescence polarization, FITC-DNA. AID 1224865, 2016. 1 h. Hepatocyte nuclear factor 4-alpha (Homo sapiens), P41235. activity change, % at 10 µM. 360,000 compounds, 0.3% hits; in the data active = activity change above about 30%, passing the limit was not always enough;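 also: controls were the assay level and a saturating level of protein; the project sought stronger binding though the title names inhibitors; some compounds called inactive have numbers as strong as hits; positive values seem to mean higher polarization but the record does not say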
Target sequence (P41235 whole entry, looked up): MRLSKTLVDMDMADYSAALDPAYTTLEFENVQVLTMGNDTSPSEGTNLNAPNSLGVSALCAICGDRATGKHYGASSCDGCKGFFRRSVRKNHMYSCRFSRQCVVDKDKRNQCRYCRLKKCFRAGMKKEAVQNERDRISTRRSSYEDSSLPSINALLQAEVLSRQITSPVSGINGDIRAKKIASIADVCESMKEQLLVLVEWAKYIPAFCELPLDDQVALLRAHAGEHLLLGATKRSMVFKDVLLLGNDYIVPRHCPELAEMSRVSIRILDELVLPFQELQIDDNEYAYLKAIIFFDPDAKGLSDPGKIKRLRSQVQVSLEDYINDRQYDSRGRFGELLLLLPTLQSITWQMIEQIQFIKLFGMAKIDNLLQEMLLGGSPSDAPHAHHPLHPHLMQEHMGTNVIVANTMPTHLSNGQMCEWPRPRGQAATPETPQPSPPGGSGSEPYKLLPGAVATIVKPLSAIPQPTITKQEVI
ALR H2O2 inh = inhibitors of human ALR sulfhydryl oxidase, primary screen, biochemical, H2O2 detection, HRP-luminol luminescence, single point; FAD-linked sulfhydryl oxidase ALR (Homo sapiens), P55789; purified ALR, DTT oxidation; inhibition, % (concentration not given with the values); 290,000 compounds, 3.8% hits; AID 485317, 2010;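 active = mean and each replicate at 75% or more; inconclusive = only one of the two met; inactive = neither met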;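 also: stock transfer was 7.5 nL into about 7.5 µL; 0% = neutral wells and 100% = wells with inactivated enzyme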
Target sequence (P55789 whole entry, looked up): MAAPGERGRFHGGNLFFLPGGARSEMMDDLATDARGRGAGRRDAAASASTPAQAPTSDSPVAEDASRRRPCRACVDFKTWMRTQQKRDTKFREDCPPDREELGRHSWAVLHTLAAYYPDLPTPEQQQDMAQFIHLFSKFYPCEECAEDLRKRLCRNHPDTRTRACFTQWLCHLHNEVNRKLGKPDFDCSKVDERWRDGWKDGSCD
LANA-H2A inh = blockers of LANA interaction with H2A/H2B – biochemical, FP readout, HTS, primary screen. AID 2629, 2010. 320,000 compounds, 0.6% hits. inhibition, % (no concentration beside the values). cell-free LANA-H2A/H2B peptide, fluorescence polarization; in the data active = inhibition mostly above about 10%, no sharp cut-off; inactive = mostly below about 6.7%;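 also: stock transfer was 7.5 nL into about 10 µL; 0% = median of vehicle wells and 100% = median of positive control wells; one replicate is shown; the record names a cut of 25% in any replicate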
* = called active by the depositor; & = joins results of further samples. Not a hit list; overall some 6.3% were active at least once.

How did Cc1cc(C)c[n+](-c2nc3ccccc3nc2[N-]S(=O)(=O)c2ccc(Cl)cc2)c1 do in these assays?
RanGTP-Impb inh: -1.0; Calb FLC: -9; Beta2AR agonist: -14; HNF4A DNA FP: -5.2; ALR H2O2 inh: 10; LANA-H2A inh: 3.0

How did O=C(Nc1cccc(-c2nn[nH]n2)c1)c1ccc(Br)s1 do in these assays?
RanGTP-Impb inh: -3.3; Calb FLC: -8; Beta2AR agonist: -2; HNF4A DNA FP: 3.1; ALR H2O2 inh: 8; LANA-H2A inh: 3.1

What do the screens show for `O=C(CSc1ccc(-c2cccnc2)nn1)Nc1ccc(F)cc1F`?
RanGTP-Impb inh: 1.8; Vif A3G: -6%; Calb FLC: -2; Beta2AR agonist: 4; HNF4A DNA FP: 0.2; ALR H2O2 inh: -8; LANA-H2A inh: 4.2

How did COc1ccc2[nH]c(=O)c(CN(Cc3ccccc3)C(=S)NCC3CCCO3)cc2c1 (centres undefined) do in these assays?
RanGTP-Impb inh: 6.6; Vif A3G: -49%; Calb FLC: -16; Beta2AR agonist: -4; HNF4A DNA FP: -5.6; ALR H2O2 inh: -5; LANA-H2A inh: -1.1

What do the screens show for `CCOC(=O)C1=C(COC(=O)CCOc2ccccc2C)NC(=O)NC1C` (centres undefined)?
RanGTP-Impb inh: inconclusive; Vif A3G: 3%; Calb FLC: 20; Beta2AR agonist: 6; HNF4A DNA FP: 0.6; ALR H2O2 inh: -5; LANA-H2A inh: -0.9

What do the screens show for `Cc1cc(N2CCCC(C(=O)Nc3cccc(Cl)c3)C2)n2ncnc2n1` (centres undefined)?
RanGTP-Impb inh: -2.1; Vif A3G: 3%; Calb FLC: 19; Beta2AR agonist: -2; HNF4A DNA FP: 4.7; ALR H2O2 inh: -11; LANA-H2A inh: 2.8

How did COCCn1c(C)cc(C(=O)COC(=O)c2ccc(S(=O)(=O)N(C)C)cc2)c1C do in these assays?
Vif A3G: -9%; Beta2AR agonist: 8; HNF4A DNA FP: 1.8; ALR H2O2 inh: -6; LANA-H2A inh: -4.8

Results for C=CCn1c(C)cc(C(=O)COC(=O)/C=C/c2cccc(OC)c2)c1C ?
RanGTP-Impb inh: -8.2; Calb FLC: -13; Beta2AR agonist: -2; HNF4A DNA FP: 3.2; ALR H2O2 inh: -13; LANA-H2A inh: -2.4

What do the screens show for `CSc1ccccc1OCc1cc(C(=O)N(C)Cc2c(C)n[nH]c2C)no1`?
RanGTP-Impb inh: 1.5; Calb FLC: 5; Beta2AR agonist: 7; HNF4A DNA FP: -0.8; ALR H2O2 inh: -2; LANA-H2A inh: -3.3

Results for Cc1nc(C)n(CC(=O)N2CCCC(C(=O)c3ccc(C(F)(F)F)cc3)C2)n1 (centres undefined) ?
RanGTP-Impb inh: -3.1; Vif A3G: 1%; Calb FLC: -12; Beta2AR agonist: 0; HNF4A DNA FP: 0.2; LANA-H2A inh: -1.9

How did O=C1CCCc2c1nc(-c1cccc(Cl)c1)n2O do in these assays?
RanGTP-Impb inh: 0.1; Vif A3G: 33%; Calb FLC: 1; Beta2AR agonist: 3; HNF4A DNA FP: -2.8; ALR H2O2 inh: -10; LANA-H2A inh: 3.0

What do the screens show for `CCOC(=O)c1nn(-c2cccc(C)c2)cc1C(=O)c1ccccc1`?
RanGTP-Impb inh: -1.7; Vif A3G: 3%; Calb FLC: 18; Beta2AR agonist: 3; HNF4A DNA FP: 1.2; ALR H2O2 inh: 30; LANA-H2A inh: 0.3

What do the screens show for `CCN(Cc1cc(OC)c(OC)c(OC)c1)C(=S)Nc1cccc(SC)c1`?
RanGTP-Impb inh: 5.0; Vif A3G: 0%; Calb FLC: -1; Beta2AR agonist: -5; HNF4A DNA FP: -0.6; ALR H2O2 inh: -14; LANA-H2A inh: -4.9

Results for CCOC(=O)C(NC(=O)c1cccc(Cl)c1)(OCc1ccccc1)C(F)(F)F (centres undefined) ?
RanGTP-Impb inh: inconclusive; Calb FLC: -11; Beta2AR agonist: 8; HNF4A DNA FP: -0.7; ALR H2O2 inh: -2; LANA-H2A inh: 1.7

How did COc1cc(OC)cc(C(=O)NC2CCSC2=O)c1 (centres undefined) do in these assays?
RanGTP-Impb inh: 3.1; Vif A3G: -2%; Calb FLC: 6; Beta2AR agonist: 1; HNF4A DNA FP: -0.8; ALR H2O2 inh: 4; LANA-H2A inh: -4.1

Results for CCCCOCCCNC(=O)c1cccc(OC)c1 ?
RanGTP-Impb inh: 0.8; Vif A3G: -7%; Calb FLC: 2; Beta2AR agonist: 3; HNF4A DNA FP: -2.9; ALR H2O2 inh: -3; LANA-H2A inh: 3.1

What do the screens show for `COc1ccc(S(=O)(=O)Nc2ccc3c(c2)n(C)c(=O)n3C)cc1F`?
RanGTP-Impb inh: 5.4; Vif A3G: 5%; Calb FLC: -1; Beta2AR agonist: -7; HNF4A DNA FP: 0.1; LANA-H2A inh: 4.2

Results for COC(=O)c1cc(S(=O)(=O)NCc2ccc3c(c2)OCO3)c[nH]1 ?
RanGTP-Impb inh: 2.4; Calb FLC: 6; Beta2AR agonist: 2; HNF4A DNA FP: -1.9; ALR H2O2 inh: 7; LANA-H2A inh: -1.0

Results for Cc1ccc(NC(=O)CS(=O)(=O)c2cn(CC(=O)N3CCOCC3)c3ccccc23)cc1 ?
RanGTP-Impb inh: 2.8; Vif A3G: 0%; Calb FLC: 6; Beta2AR agonist: 6; HNF4A DNA FP: 2.4; ALR H2O2 inh: -6; LANA-H2A inh: 18*

What do the screens show for `O=C(NCCc1c[nH]c2ccccc12)C(=O)c1c[nH]c2ccccc12`?
RanGTP-Impb inh: 7.1; Calb FLC: -2; Beta2AR agonist: 9; HNF4A DNA FP: 1.1; ALR H2O2 inh: -6; LANA-H2A inh: 1.0

Pulled by compound from the list above, 2 records:
Results for COC(=O)c1cc(S(=O)(=O)NCc2ccc3c(c2)OCO3)c[nH]1 ?
RanGTP-Impb inh: 2.4; Calb FLC: 6; Beta2AR agonist: 2; HNF4A DNA FP: -1.9; ALR H2O2 inh: 7; LANA-H2A inh: -1.0

How did O=C1CCCc2c1nc(-c1cccc(Cl)c1)n2O do in these assays?
RanGTP-Impb inh: 0.1; Vif A3G: 33%; Calb FLC: 1; Beta2AR agonist: 3; HNF4A DNA FP: -2.8; ALR H2O2 inh: -10; LANA-H2A inh: 3.0

(continued)
What do the screens show for `CCN(CC)C(=O)c1ccc(S(=O)(=O)N2CCC(c3nc4ccccc4s3)CC2)cc1`?
RanGTP-Impb inh: -1.0; Vif A3G: -3%; Calb FLC: -10; Beta2AR agonist: -3; HNF4A DNA FP: -3.4; ALR H2O2 inh: -5; LANA-H2A inh: 2.0

Results for CN(CCOc1ccc(Cl)cc1)C(=O)c1ccc(S(=O)(=O)N2CCOCC2)cc1 ?
RanGTP-Impb inh: 0.5; Vif A3G: 2%; Calb FLC: -4; Beta2AR agonist: -5; HNF4A DNA FP: 0.0; ALR H2O2 inh: -4; LANA-H2A inh: 6.4

Results for CSc1ncc(C(=O)Nc2ccc(C(C)=O)cc2)c(C)n1 ?
RanGTP-Impb inh: -1.9; Vif A3G: 7%; Calb FLC: 2; Beta2AR agonist: 6; HNF4A DNA FP: 4.6; ALR H2O2 inh: -4; LANA-H2A inh: 0.9

Results for Cc1ccccc1NC(=O)C1CCN(S(=O)(=O)c2cccs2)CC1 ?
RanGTP-Impb inh: inconclusive; Vif A3G: -1%; Calb FLC: -8; Beta2AR agonist: 0; HNF4A DNA FP: 1.1; ALR H2O2 inh: -6; LANA-H2A inh: 5.4

Results for CCOC(=O)Cn1nc(NC(=O)COc2ccc(F)cc2)cc1C ?
RanGTP-Impb inh: -1.2; Calb FLC: 2; Beta2AR agonist: 0; HNF4A DNA FP: 0.4; ALR H2O2 inh: -7; LANA-H2A inh: 3.6

Results for O=C/C(=C\Nc1ccc(C(=O)N2CCOCC2)cc1)c1nc2ccccc2o1 ?
RanGTP-Impb inh: 4.3; Vif A3G: inconclusive; Calb FLC: -3; Beta2AR agonist: -16; HNF4A DNA FP: 1.2; ALR H2O2 inh: -21; LANA-H2A inh: -21

What do the screens show for `Cc1c(C(=O)N(C)C)sc(NC(=O)c2cccc([N+](=O)[O-])c2)c1C#N`?
RanGTP-Impb inh: 2.2; Vif A3G: -2%; Calb FLC: -2; Beta2AR agonist: 4; HNF4A DNA FP: 0.1; ALR H2O2 inh: 7; LANA-H2A inh: 7.5

What do the screens show for `CC1(C(=O)N2CC3(CC(c4ccccc4)=NO3)C[C@H]2C(=O)NCC(N)=O)CC1` (some centres undefined)?
RanGTP-Impb inh: inconclusive; Vif A3G: 4%; Calb FLC: 3; Beta2AR agonist: -2; HNF4A DNA FP: -0.9; ALR H2O2 inh: -25; LANA-H2A inh: -2.7

What do the screens show for `CCOC(=O)c1nc(Nc2ccc(C)cc2)c2ccccc2n1`?
RanGTP-Impb inh: -0.2; Vif A3G: -4%; Calb FLC: 11; Beta2AR agonist: 12; HNF4A DNA FP: 0.0; ALR H2O2 inh: 56; LANA-H2A inh: -0.4

Results for CC(=O)Nc1cccc(NC(=O)c2ccc(Br)cc2)c1 ?
RanGTP-Impb inh: 3.0; Vif A3G: -2%; Calb FLC: -1; Beta2AR agonist: 4; HNF4A DNA FP: -3.4; ALR H2O2 inh: -16; LANA-H2A inh: 7.1

How did CC(Oc1ccc(NC(=O)c2ccco2)cc1)C(=O)N1c2ccccc2CC1C (centres undefined) do in these assays?
RanGTP-Impb inh: -0.3; Vif A3G: inconclusive; Calb FLC: 0; Beta2AR agonist: -10; HNF4A DNA FP: -0.7; ALR H2O2 inh: -15; LANA-H2A inh: 4.2

How did CC(C)(C)c1ccc(-n2nc(C(N)=O)c(O)cc2=O)cc1 do in these assays?
RanGTP-Impb inh: -0.3; Vif A3G: inconclusive; Calb FLC: -12; Beta2AR agonist: -2; HNF4A DNA FP: 5.6; ALR H2O2 inh: 8; LANA-H2A inh: -5.7

Results for CCOc1cc(-c2c(C#N)c(N)nc3c2CCCC3C)ccc1O (centres undefined) ?
RanGTP-Impb inh: 0.5; Vif A3G: 6%; Calb FLC: 38; Beta2AR agonist: -3; HNF4A DNA FP: 5.7; ALR H2O2 inh: 98*; LANA-H2A inh: -5.1

What do the screens show for `COc1cc(C2NC(=O)NC(c3ccccc3)=C2C(C)=O)ccc1OCC#N` (centres undefined)?
RanGTP-Impb inh: 2.1; Vif A3G: 4%; Calb FLC: -19; Beta2AR agonist: 5; HNF4A DNA FP: 5.3; ALR H2O2 inh: -15; LANA-H2A inh: 2.1

How did CCN1C(=O)/C(=c2\o/c(=C3\C=Cc4ccccc4N3CC)c(=O)n2CC)SC1=S do in these assays?
RanGTP-Impb inh: 1.8; Vif A3G: -2%&22%; Calb FLC: 6; Beta2AR agonist: -10; HNF4A DNA FP: 0.7

Results for COc1ccc(/C=C/C(=O)Nc2cc(=O)n(C)c(=O)n2C)cc1 ?
RanGTP-Impb inh: 3.7; Calb FLC: 13; Beta2AR agonist: -16; HNF4A DNA FP: 3.6; ALR H2O2 inh: -5; LANA-H2A inh: -2.6

What do the screens show for `CS(=O)(=O)c1ccc(-c2cccc(NC(=O)COc3ccccc3)c2)nn1`?
RanGTP-Impb inh: 0.9; Calb FLC: 1; Beta2AR agonist: 1; HNF4A DNA FP: -2.1; ALR H2O2 inh: -4; LANA-H2A inh: 0.4
